Marburg entry inh: inhibitors of Marburg virus binding or cell entry; Marburg virus pseudotyped entry inhibition, cell reporter; control for the full effect not named in the record; about a third of the inactives were read at about 46 µM; Potency, µM (highest dose often 37.8 µM), without a hit: top-dose activity change, negative = inhibition, actives largely listed as inhibitors; 1.8% of 300,000 active; AID 540276; active = well fitted inhibition curve with a large enough effect; inconclusive = small, poorly fitted or top-dose-only effect, or effect the other way; inactive = flat fitted curve, though single readings scatter; tested in HEK293 cells; about a fifth of its hits are not listed in these tables; further: on the % scale 0 is the no-effect control and ±100 the full control effect; luciferase read-out
NS1 inh: influenza NS1 inhibition | 0.4% of 270,000 active | Potency, µM (doses to about 46.1 µM), inactives show at the highest dose activity, positive = more growth | AID 2326 | S. cerevisiae slowed by influenza A NS1, growth recovery by OD600; active means well fitted rising curve with a large enough effect; inconclusive means small, poorly fitted or top-dose-only effect; inactive means no such curve, though single readings can be large or run the other way; further: nearly all actives have a fitted effect of over 50% in size
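Growth recovery, yeast-based: influenza A NS1 expressed in S. cerevisiae causes slow growth, and suppressors are detected by OD600. The parent strain without NS1 is used as positive control.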
RE007 growth inh: less growth of the S. pombe RE007 Vpr strain; Potency, µM (top dose mostly 92.2 µM), for inactives: at the top dose activity change, negative = less growth; 0.21% of 360,000 active; AID 651644; S. pombe RE007 Vpr strain, BacTiter-Glo ATP luminescence, 24 h; control for the full effect not named in the record; active = well fitted falling curve with a large enough effect; inconclusive = small, poorly fitted or top-dose-only effect; inactive = no such curve, though single readings can be large or run the other way;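 further: on the % scale 0 is the no-effect control and ±100 the full control effect; nearly all actives have a fitted effect of over 50% in size; the assay follows cell death caused by Vpr and the record does not say whether a fall means rescue or toxicity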
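Fission yeast RE007 carrying one integrated HIV-1 vpr copy, seeded at OD 0.01 in PMG+AL medium with 23 nL pinned compound. Grown 24 h at 30 degrees; viability read by BacTiter-Glo luminescence after 5 min.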
LASV entry inh: blocks Lassa virus binding to or entry into cells | 1.2% of 300,000 active | Potency, µM (series often up to 37.9 µM), without a hit: at the highest dose activity change, negative = inhibition, most hits filed as inhibitors | AID 540256 | Lassa virus pseudotype entry inhibition, cell reporter; control for the full effect not named in the record; active means well fitted inhibition curve with a large enough effect; inconclusive means small, poorly fitted or top-dose-only effect, or effect the other way; inactive means flat fitted curve, though single readings scatter; tested in HEK293 cells; further: on the % scale 0 is the no-effect control and ±100 the full control effect; nearly all actives have a fitted effect of over 50% in size; luciferase read-out
Cruzain inh noDet: blocks cruzain activity in detergent-free assay. AID 1476. purified cruzain, Z-FR-AMC fluorescence, no detergent. P25779. Potency, µM, for inactives: max response, negative = inhibition, actives largely listed as inhibitors. 2.3% of 200,000 active;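 further: plate controls were enzyme without inhibitor for no effect and buffer without enzyme for full effect; nearly all actives have a fitted effect of over 40% in size; top concentration of the series not given in the record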
Target sequence (P25779 123-467 limits assumed): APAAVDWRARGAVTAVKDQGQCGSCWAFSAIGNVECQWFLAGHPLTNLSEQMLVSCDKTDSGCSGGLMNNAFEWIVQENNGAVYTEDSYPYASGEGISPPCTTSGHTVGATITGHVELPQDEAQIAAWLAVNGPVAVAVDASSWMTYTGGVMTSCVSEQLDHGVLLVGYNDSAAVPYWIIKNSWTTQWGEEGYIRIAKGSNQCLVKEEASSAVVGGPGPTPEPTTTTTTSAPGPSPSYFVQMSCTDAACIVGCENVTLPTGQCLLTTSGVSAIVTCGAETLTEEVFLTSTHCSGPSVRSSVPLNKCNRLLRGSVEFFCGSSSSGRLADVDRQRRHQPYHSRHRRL
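Purified cruzain at 1.5 nM, pre-incubated 15 min with compound at room temperature in 100 mM sodium acetate pH 5.5, 5 mM DTT, 0.00005% Triton X-100. Reaction started with 2 uM Z-FR-AMC; AMC fluorescence increase over 60 s gives rate.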
SARS PLpro yeast: inhibitors of SARS-CoV papain-like protease in yeast; S. cerevisiae expressing SARS-CoV PLpro, growth rescue; control for the full effect not named in the record; Potency, µM (series often up to 32.9 µM), inactives show top-dose activity, positive = growth rescue; 0.19% of 330,000 active; active means well fitted rising curve with a large enough effect; inconclusive means small, poorly fitted or top-dose-only effect; inactive means no such curve, though single readings can be large or run the other way; further: 0% is about no effect; nearly all actives have a fitted effect of over 55% in size; growth read by luminescence after 48 h
StopGo reporter: lowers the luciferase signal of an FMDV 2A StopGo reporter | human cells with a luciferase reporter of 2A StopGo recoding; control for the full effect not named in the record | Potency, µM (series often up to 57.9 µM), without a hit: at the highest dose signal change, negative = less light | 1.2% of 410,000 active | AID 1159524; active = well fitted falling curve with a large enough effect; inconclusive = small, poorly fitted or top-dose-only effect; inactive = no such curve, though single readings can be large or run the other way; tested in HEK293T cells; further: on the % scale 0 is the no-effect control and ±100 the full control effect; nearly all actives have a fitted effect of over 45% in size; luciferase light after 4 h
Cruzain Triton: inhibitors of Trypanosoma cruzi cruzain with detergent; 0.43% of 200,000 active; AID 1478; purified cruzain, Z-FR-AMC fluorescence, 0.01% Triton; Potency, µM, for inactives: max response, negative = inhibition, usual class: inhibitors; P25779;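 further: plate controls were neutral wells for no effect and buffer without enzyme for full effect; nearly all actives have a fitted effect of over 40% in size; top concentration of the series not given in the record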
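Detergent-containing arm of a paired screen for aggregation-based inhibition: 0.01% Triton X-100 present. Cruzain at 1.5 nM cleaved 2 uM Z-FR-AMC at pH 5.5 with 5 mM DTT; AMC fluorescence gain over 60 s measured activity.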
The depositor's hits bear a star; ? = inconclusive; . = not tested or not shown; [ ] = dose if it differs, or a comment. Unless noted, the call rests on the fitted dose curve; in most records, active means well fitted curve in the direction sought with a large enough effect; inconclusive means small, poorly fitted or top-dose-only effect, or another doubt; inactive means no such curve, though single readings can be large; an effect the other way counts as inactive or inconclusive. Potency means the concentration at half of the fitted maximal effect.

| Molecule | Cruzain Triton | Cruzain inh noDet | RE007 growth inh | LASV entry inh | SARS PLpro yeast | Marburg entry inh | StopGo reporter | NS1 inh |
| --- | --- | --- | --- | --- | --- | --- | --- | --- |
| O=C1CC2(CCN(C(=O)c3cccc(Cl)c3)CC2)Oc2ccccc21 | . | . | -5% | 12%[46.1 µM] | . | 16% | ? | . |
| O=C1c2cccc(OCc3ccc(F)cc3)c2CCN1Cc1ccccc1 | -5.8% | 5% | 21% | ? | -24% | ? | ? | -24% |
| O=c1c2c([nH]c3ccccc13)CCCC2 | 4.9% | 0% | 23% | 0% | -36% | -9% | -23% | -32% |
| O=C(CNC(=O)c1cccc(F)c1)N/N=C/c1cccs1 | . | . | -18% | . | -2% | . | 6% | 4% |
| O=C(CC1(O)C(=O)N(Cc2ccccc2)c2ccccc21)c1ccncc1 (centres undefined) | 0.5% | -3% | -19% | -18% | -2% | -13% | 2% | -1% |
| CN(C)S(=O)(=O)c1ccc2c(c1)nc(CCC(=O)NCCc1ccc(Cl)cc1)n2C | . | . | 18% | 11%[46.1 µM] | 0% | 1%[46.1 µM] | -6% | -8% |
| C=CCN(C(=O)CSc1nc2c(sc3ccccc32)c(=O)n1CCN(CC)CC)c1ccccc1 | . | . | 2% | ? | -1% | ? | ? | . |
| Clc1cccc2c1CCN(Cc1nc(-c3cnccn3)no1)C2 | . | . | 7% | -15% | 0% | -5%[46.1 µM] | -14% | 6% |
| Cc1cccc(-n2c(=O)c3c(c4cc(C)ccc4n3C)n(CC(=O)Nc3ccc(C)c(C)c3)c2=O)c1 | 0.7% | -2% | . | ? | . | . | -6% | . |
| COc1cc(CN2CC(C)CC(C)C2)cc([N+](=O)[O-])c1O (centres undefined) | -1.6% | 3% | -14% | -15% | 1% | 6% | 5% | -8% |
| Cc1onc(C(=O)Nc2ccc(OC(F)(F)F)cc2)c1[N+](=O)[O-] | . | . | -4% | . | -4% | . | -33% | 1% |
| COc1ccc(N(C(=O)c2snc(C(N)=O)c2N)C(C(=O)NCc2ccccc2)c2ccc(F)cc2)c(OC)c1 (centres undefined) | . | . | -15% | 8.9µM* | 5% | ? | 0% | 3% |
| CCOc1ccccc1NC(=O)N1CCC(c2nc3ccccc3[nH]2)CC1 | 2.5% | -5% | -17% | -5% | 3% | -3% | 5% | 3% |
| CS(=O)(=O)CCC(C(=O)OCc1ccc(Br)cc1)N1C(=O)c2ccccc2C1=O (centres undefined) | -2.8% | ? | 8% | 3% | -9% | 0% | -16% | -5% |
| O=C(Nc1ccc(S(=O)(=O)N2CCOCC2)cc1)C1CCN(S(=O)(=O)c2ccccc2)CC1 | . | . | 0% | 3% | -4% | -1% | -21% | . |
| CCn1c(SCC(=O)OC2CCCCC2)nc2ccccc2c1=O | -11% | 5% | 2% | -2% | -24% | -22% | -29% | 2% |
| C=CCN1C(=O)/C(=C\C=C2\N(C)c3ccccc3C2(C)C)SC1=S | -3.3% | ? | 2% | 13%[46.1 µM] | -13% | -1% | ? | 1% |
| ClC(CCN1CCN(Cc2ccccc2)CC1)c1ccccc1 (centres undefined) | . | . | -8% | -19% | . | ? | -5% | . |
| COc1ccccc1OC(C)C(=O)N1CCC(Cc2ccccc2)CC1 (centres undefined) | . | . | 1% | 19%[46.1 µM] | 5% | 7%[46.1 µM] | -26% | -6% |
| NC(=O)NC(=O)CN1c2cccc3cccc(c23)S1(=O)=O | . | . | 4% | 21%[46.1 µM] | -2% | ? | 10% | -21% |
| COc1cccc(NC(=O)c2sc3nc(N4CCOCC4)c4c(c3c2N)CC(C)(C)OC4)c1 | -0.4% | -5% | . | -2%[46.1 µM] | . | ? | 19% | . |
| O=c1c2c(nc3n1CCCCC3)-c1ccccc1CC21CCCCC1 | -5.4% | 4% | -1% | -1% | 10% | 4% | . | -2% |
| CS(=O)(=O)N1CCN(c2ccc(C(=O)N3CCOCC3)cc2[N+](=O)[O-])CC1 | . | . | 1% | -3% | -1% | 0% | 4% | 4% |
| C=CCn1c(CNC(=O)c2ccccc2F)nnc1SCC(=O)NC(C)c1ccccc1 (centres undefined) | . | . | -15% | -4% | -2% | 19%[46.1 µM] | -1% | 4% |
| Cc1ccc(S(=O)(=O)N2CCC(C(=O)Nc3ccc4c(c3)COC4=O)CC2)cc1 | 0.5% | -8% | 4% | 0% | 7% | -20% | 10% | 0% |
| Cc1ccccc1NC(=O)/C(C#N)=C/c1ccc(Cl)cc1Cl | -0.1% | -3% | . | -1%[46.1 µM] | . | -15%[46.1 µM] | 60%[activator] | . |
| O=C(O)CCCC(=O)N1N=C(c2ccco2)CC1c1ccco1 (centres undefined) | . | . | -10% | . | 2% | . | -12% | 15% |
| Cc1ccc(C)c(N2CCN(C(=O)C3CCN(S(=O)(=O)c4ccc5[nH]c(=O)oc5c4)CC3)CC2)c1 | -6.4% | 24% | . | -16%[46.1 µM] | . | . | -27% | . |
| O=C(CN(C(=O)c1csnn1)c1ccccc1Cl)NCCc1ccccc1 | . | . | 9% | 18%[46.1 µM] | -1% | -2%[46.1 µM] | 8% | 3% |
| COc1ccc(CNCc2ccc3c(c2)n(C)c(=O)n3C)cc1 | 0.5% | 11% | . | -3%[46.1 µM] | . | -11%[46.1 µM] | 6% | . |
| O=C(/C=C/c1ccco1)NC(=S)Nc1ccccc1O | . | . | -1% | 16% | 9% | 7%[46.1 µM] | 63%[activator] | 0% |
| Cc1ccc(S(=O)(=O)N(C)CC(=O)O/N=C(\N)c2ccccn2)cc1 | 2.9% | 4% | -7% | 6% | 7% | -5% | -13% | -12% |
| COc1cccc(-n2cc(C(=O)Nc3cccc(C(F)(F)F)c3)c3ccccc3c2=O)c1 | -12% | -3% | . | -2%[46.1 µM] | . | . | -9% | . |
| COc1ccc(CCN(C)C(=O)CCNC(=O)c2ccc(Br)cc2)cc1OC | . | . | 15% | -7% | 1% | -14% | -26% | -6% |
| Cc1ccc(OCC(=O)NNC(=O)CSc2ncnc3sc(C)c(C)c23)cc1 | . | . | 6% | . | 8% | . | -21% | 3% |
| Cc1ccc(C)c(NC(=S)NCCCN2CCOCC2)c1 | . | . | 4% | . | 2% | -3%[46.1 µM] | -5% | . |
| O=C(N/N=C/c1c(O)n(C2CC2)c(=S)[nH]c1=O)c1ccccc1O | -6.1% | -7% | 14% | ? | 13µM* | -9% | 14% | 16% |
| CC(=O)N1N=C(c2ccc(C)o2)CC1c1ccc(F)cc1 (centres undefined) | -4.3% | -7% | 5% | 18% | -5% | 29% | -12% | 1% |
| Cc1ccn2c(=O)nc(SCC(=O)N3N=C(c4cccs4)CC3c3ccc(F)cc3)nc2c1 (centres undefined) | . | . | 2% | ? | 2% | ? | -24% | . |
| O=C(CCC(=O)N1Cc2ccccc2Oc2ncccc21)Nc1ccc(Cl)cc1 | -1.1% | 10% | . | 10%[46.1 µM] | . | . | 0% | . |
| CC1CN(C(=O)c2cc3cc([N+](=O)[O-])ccc3s2)CC(C)O1 (centres undefined) | . | . | -20% | ? | 0% | . | -12% | 9% |
| CC(O)CNc1nc2ccccc2n1CC(=O)NCCc1ccc(Cl)cc1 (centres undefined) | 0.8% | -6% | -1% | -8% | 2% | 0% | -11% | -5% |
| CC(=O)N1CCCc2ccccc21 | 2.6% | 1% | -8% | -2% | 13% | 4% | 1% | 7% |
| CC(=O)c1cccc(NC(=O)N2CCC(NC(=O)C34CC5CC(CC(C5)C3)C4)CC2)c1 | . | . | -1% | -2% | 1% | 1%[46.1 µM] | -15% | . |
| Cc1cc(C(=O)Nc2cccc(C)c2C)c2c(C)nn(-c3cccc(F)c3)c2n1 | -0.6% | -6% | . | 0%[46.1 µM] | . | . | -14% | . |
| COc1ccc(Nc2cc(C(=O)NCCCOC(C)C)c3ccccc3n2)c(OC)c1 | . | . | 2% | . | -2% | . | -15% | -6% |
| Cc1cc(OCc2cc(C(=O)NCc3csc(C(C)C)n3)no2)cc(C)c1Cl | . | . | -22% | -28% | 1% | -25% | -7% | -11% |
| Cc1ccc2nc3c(cc2c1)c(C)nn3-c1ccccc1 | . | . | -10% | . | 0% | . | 3% | -5% |
| COc1ccc(-c2noc(CCC(=O)NCC3CCCO3)n2)cc1OC (centres undefined) | . | . | -2% | . | -3% | . | 0% | -5% |
| c1ccc(-n2nnc(-c3cccnc3)n2)cc1 | . | . | -18% | . | -1% | . | 58%[activator] | -7% |
| O=C(/C=C/c1ccc(F)cc1)N1CCN(S(=O)(=O)/C=C/c2ccccc2)CC1 | . | . | -6% | 15% | -4% | -14%[46.1 µM] | -12% | . |
| CC1CCN(CCNC(=O)C2CCCN(S(=O)(=O)c3cccc4nsnc34)C2)CC1 (centres undefined) | . | . | -2% | 1%[46.1 µM] | 1% | -4%[46.1 µM] | 23% | 4% |
| CNC(=O)c1ccccc1NC(=O)c1cccc(S(=O)(=O)N2CCC(C)CC2)c1 | -7.4% | 23% | -7% | 22µM* | -23% | ? | 0% | -12% |
| O=C(NNC(=O)c1cc(-c2ccco2)nc2ccccc12)c1ccccc1 | . | . | 4% | -9% | -2% | 0% | 13% | 0% |
| Cc1[nH]nc2c1C(c1ccc3c(c1)OCO3)C(C#N)=C(N)O2 (centres undefined) | 1.0% | -7% | 10% | -9% | -3% | -1% | . | -3% |
| CC(C)n1cc(/C=C/c2cc[n+](C)cc2)c2ccccc21 | . | . | -16% | ? | 1% | 2.5µM* | ? | -8% |
| CC(C)(C)C(=O)Cn1c[n+](N)cn1 | 5.2% | -1% | 11% | 14% | 0% | ? | -14% | -5% |
| CCOC(=O)c1sc(/N=C/c2ccc(O)cc2O)cc1C | -5.4% | 6% | -12% | 15% | 13% | 5% | 24% | -18% |
| COc1ccc(C(=O)Nc2nc(-c3ccc([N+](=O)[O-])cc3)c(-c3ccc(OC)cc3)s2)cc1 | 1.7% | 10µM* | 3% | 2% | 8% | -2% | ? | 5% |
| Cc1ccc(OCC(=O)N2c3ccccc3NC(=O)C2(C)C)c([N+](=O)[O-])n1 | . | . | 29% | 10% | -2% | 9%[46.1 µM] | -11% | 1% |
